RVFV N-RNA inh = blocks Rift Valley Fever Virus nucleoprotein binding to RNA | P21700 | RVFV N-RNA binding, fluorescence polarization; stronger effect = lower value | % bound, % (no concentration beside the values) | actives 0.1% (n = 20,000);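 active = between 0 and 58% in either replicate with normal brightness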;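 note: 100 nL library stock added to about 12 µL; 100% = protein and probe without compound and 0% = probe alone; numbers are from one replicate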
Target sequence (P21700 whole entry, looked up): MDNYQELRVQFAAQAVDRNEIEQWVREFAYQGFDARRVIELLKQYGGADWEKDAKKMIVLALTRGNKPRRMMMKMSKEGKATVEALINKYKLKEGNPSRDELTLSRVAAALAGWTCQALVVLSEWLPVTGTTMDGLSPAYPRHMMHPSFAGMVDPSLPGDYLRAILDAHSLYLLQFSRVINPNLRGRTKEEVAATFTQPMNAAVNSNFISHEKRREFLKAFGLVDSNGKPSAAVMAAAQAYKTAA
* hit, by the source's call; & = joins results of further samples.

SMILES	RVFV N-RNA inh
N#CC(C(=O)CN1CCCCC1)c1ccccc1 (configuration not stated)	102
CC(=O)NCCc1nc2ccc(NC(=O)Cn3nc(C)c4ccccc4c3=O)cc2n1C	94
COc1ccc(-c2oc(/N=C/c3ccccc3)c(C#N)c2-c2ccc(OC)cc2)cc1	109
Oc1ccc(NC(=S)NCCc2ccccc2)cc1	104
COC(=O)c1cc(OC)c(OC)cc1NC(=S)N1CCN(C)CC1	96
Cc1onc(-c2ccccc2)c1C(=O)NC1CCCCC1NC(=O)c1c(-c2ccccc2)noc1C (configuration not stated)	98
CC1=CC(=O)C(CCCCCC2=CC(=O)C(C)=CC2=O)=CC1=O	104
COC(=O)C1=CO[C@@H](O)[C@@H]2C(CO)=CC[C@H]12	92
CCCCC[C@H](CC(=O)NO)C(=O)N[C@H](C(=O)N1CCC[C@H]1CO)C(C)C	106
COCCNS(=O)(=O)Cc1ccc(Cl)cc1	95
CC(C)(C)n1nc2c(c1NC(=O)C1CC1)CSC2	97
CC(=O)OC[C@H]1O[C@@H](n2cc(Br)c(=O)[nH]c2=O)C[C@@H]1OC(C)=O	106
C=C1C2(C(=O)Nc3cc(C)on3)CCC(C2)C1(C)C (configuration not stated)	96
CCCc1c(C)c(C#N)c2[nH]c3ccccc3n2c1=O	94
CN(C(=O)c1ccccc1O)C1CCCCC1	99
COc1cccc(-n2c(N)cc(=O)n(Cc3ccccc3)c2=O)c1	109
CC1=C(C(=O)O)N2C(=O)[C@@H](NC(=O)C(N)C3=CCC=CC3)[C@H]2SC1 (some centres not stated)	90
CCCc1c(OCCCOc2ccc(OCC(=O)O)cc2)ccc(C(C)=O)c1O	97
Cc1cc(C)c2c(=O)c(C#N)coc2c1	88
CCn1c(=S)[nH]c2sc3c(c2c1=O)CCC3	88
CCC(=O)Nc1ccc(C(=O)N(CC)C2CCCCC2)cc1	93
O=C(CSc1nnc(COc2ccccc2)n1Cc1ccco1)Nc1ccc2c(c1)OCO2	95
Cc1ccc2nc(-c3ccc(NC(=S)NC(=O)Cc4ccccc4)cc3O)oc2c1	93
CCCn1ccc2c(OCC(=O)Nc3ccc(NC(C)=O)cc3)cccc2c1=O	95
Cc1nnc2n1-c1ccc(Cl)cc1C(c1ccccc1)=NC2	110
CCC(=O)Nc1nnc(SCC(=O)Nc2ccc3c(c2)OCO3)s1	96
O=C1CSC(c2cccnc2)N1CC1CC1 (configuration not stated)	93
CC(NC(=S)Nc1ccc2c(c1)OCO2)C1CCCO1 (configuration not stated)	94
Cn1c(Cc2cccc3ccccc23)nnc1SCc1ccccc1C#N	91
CC1CCCN(CCS(=O)(=O)c2ccccc2)C1 (configuration not stated)	92
O=c1nc(-c2ccccc2)c2cc(SC(F)F)ccc2[nH]1	95
COc1ccc(OC)c2[nH]c(=O)c(CCNC(C)=O)cc12	96
CCCCNC(=O)Oc1ccc(-c2csnn2)cc1	98
Fc1cccc(-c2[nH]ncc2-c2nnnn2-c2ccccc2)c1	91
O=C1Nc2ccccc2/C1=C/C(=O)c1ccco1	90
CSc1nnc(CNC(=O)c2ccccc2)n1-c1cccc(C)c1	97
CCOC(=O)C12CC1/C(=N/O)c1ccccc1O2 (configuration not stated)	100
Nc1nc(CN2CCN(C(=O)c3ccco3)CC2)nc(N2CCCc3ccccc32)n1	95
Nc1nc(N)nc(-c2cc(Cl)ccc2Cl)n1	94&94
O=C1C=Cc2ccc3c4c(ccc1c24)C=CC3=O	86
COC(=O)c1ccc(CSc2nncc(=O)n2N)o1	101
c1cnc(SCCOc2ccc3c(c2)CCC3)nc1	100
O=C(c1ccccc1)c1ccc(N2CCCC2)cc1	95
CCOC(=O)c1ncn2c1[C@@H]1CCCN1C(=O)c1cc(OC)ccc1-2	100
O=C(CSc1nnc(COc2ccccc2)o1)N1CCc2ccccc21	98
CCN(CC)c1nc(N2CCOCC2)nc(N2CCOCC2)n1	93
CC12C(=O)C3C4CC5C3C(=O)C1C5C42 (configuration not stated)	93
CC(=O)NC1C(O/N=C2/C(=O)N(CCOc3ccccc3C)c3ccc(C)cc32)OC(CO)C(O)C1O (configuration not stated)	104
COc1ccc(CCNC(=O)c2snnc2C)cc1	95
Cc1ccc2oc(=O)n(CC/C(N)=N/OC(=O)c3ccccc3)c2c1	95
S=C(NCC1CCCO1)NC1CC1 (configuration not stated)	98
COc1cc(NS(=O)(=O)c2cc(C)c(Cl)cc2C)c(C(=O)O)cc1OC	94
COc1ccc(S(=O)(=O)NC(C)C(N)=O)cc1 (configuration not stated)	96
C#CC1(O)CCCCCCCCCCC1	93
O=C1N/C(=N\Nc2ccccc2)S/C1=C\c1ccccc1	103
CCOC(=O)/C(C#N)=C\c1ccccc1N1CCN(C)CC1	98

Additional entries:
canonical_smiles	RVFV N-RNA inh
O=C(O)C1C2C=CC(C2)C1C(=O)Nc1cccc(Br)c1 (configuration not stated)	94
NC(=O)COc1ccc(S(=O)(=O)N2CCCCC2)cc1	91
CC(NS(=O)(=O)c1ccccc1)c1ccccc1 (configuration not stated)	97
CCOC(=O)C1=C(c2ccccc2)NC(=O)NC1c1ccc(OC)c(OC)c1 (configuration not stated)	96
Nc1cc(=O)[nH]c(SCC(=O)N2CCc3ccccc32)n1	95
CCOc1ccc(C(=S)N2CCN(C)CC2)cc1	88
CCOP(=O)(c1ccccc1)C1(O)CCCCC1 (configuration not stated)	86
COc1cc2ncc(C(=O)c3ccccc3)c(N3CCOCC3)c2cc1OC	93

Reformatted as labelled records: part of the list above.
> CC(NS(=O)(=O)c1ccccc1)c1ccccc1 (configuration not stated)
  RVFV N-RNA inh: 97

> CCOC(=O)C1=C(c2ccccc2)NC(=O)NC1c1ccc(OC)c(OC)c1 (configuration not stated)
  RVFV N-RNA inh: 96

> Nc1cc(=O)[nH]c(SCC(=O)N2CCc3ccccc32)n1
  RVFV N-RNA inh: 95

> CCOc1ccc(C(=S)N2CCN(C)CC2)cc1
  RVFV N-RNA inh: 88

More results:
canonical_smiles	RVFV N-RNA inh
Cc1cc(C)n(C(=O)CC#N)n1	85
CCc1ccc(S(=O)(=O)Nc2ccc3oc4c(c3c2)C(=O)CCC4)cc1	98
c1ccc(-c2nnc3ccc4nnc(-c5ccccc5)n4n23)cc1	98
CCOc1ccccc1/C=N/NC(=O)c1ccccc1O	91
O=C(CSc1nc(=O)n2ccccc2n1)N1CCCC1	96
CCS(=O)(=O)NCC(c1ccco1)N1CCN(c2ccc(F)cc2)CC1 (configuration not stated)	100
Cc1cccc(NC(=O)NCC(c2ccco2)N2CCc3ccccc3C2)c1 (configuration not stated)	99
CC(O)CNC(=O)Cc1cc(=O)[nH]c(=O)[nH]1 (configuration not stated)	98
O=C(O)CCc1nc2ccccc2[nH]1	109
O=P1(N(CCCl)CCCl)NCCCO1 (configuration not stated)	104&99&97
Cc1c(C#N)sc(-c2ncn[nH]2)c1C	99
CCC(=O)NS(=O)(=O)c1ccc(-c2c(-c3ccccc3)noc2C)cc1	97
N#Cc1ccccc1NC(=O)Nc1cc(-c2cccs2)nn1-c1ccc(I)cc1	99
CCn1nnc2c(N3CCC(O)CC3)ncnc21	95
CCCN(C)C(=O)c1cc2ccccc2oc1=O	96
Cc1cccc(N/C=C2/CCCCC2=O)c1	90
c1ccc2c(c1)CC(Nc1ccc3cn[nH]c3c1)C2	85
CSc1scc2c1/C(=N/OC(C)=O)CC(C)(C)C2	100
COC(=O)C12CCC3(C(=O)OC)CC(C(=O)OC)(CC(C(=O)OC)(C1)C3=O)C2=O	95
O=C(O)COCC(=O)Nc1nc(SCc2ccc(Cl)cc2)n[nH]1	94
C=CCn1c(CSc2nc(N)cc(N)n2)n[nH]c1=S	88
CCC(CO)NC(=S)Nc1c(C)cccc1C (configuration not stated)	97
CC1Cc2ccccc2N1C(=O)C1CCCO1 (configuration not stated)	101
COc1ccc(C(CNS(=O)(=O)c2cccs2)N2CCN(C)CC2)cc1 (configuration not stated)	96
Cc1cc(Nc2ccccc2)n2ncnc2n1	95
O=C1C2C(c3ccccc3)C=CC(c3ccccc3)C2C(=O)N1CCCO (configuration not stated)	93
Cn1c([O-])c([N+](C)(C)C)c(=O)n(C)c1=O	98
NC(=O)c1ccccc1NC(=O)CCC1CCCCC1	99
C=CCN1C[C@@H](C)N([C@H](c2ccc(C(=O)N(CC)CC)cc2)c2cccc(OC)c2)C[C@@H]1C	100
COc1ccc(C2CC(=O)N(CC(=O)NCc3ccco3)c3ccccc3S2(=O)=O)cc1OC (configuration not stated)	103
O=C(Nc1ccc(-c2nc3ncccc3o2)cc1)c1ccc(-c2cc3ccccc3oc2=O)cc1	102
CN1CCC(=NNC(=O)CCSc2ccc(Cl)cc2)CC1	93
Cc1noc(C)c1C(=O)O/N=C(\N)c1ccc(OC(F)(F)F)cc1	94
Cc1ccc(N2CC(NS(=O)(=O)N(C)C)CC2=O)cc1C (configuration not stated)	101
CCC(=O)N1N=C(c2c(-c3ccccc3)c3cc(Cl)ccc3[nH]c2=O)CC1c1ccco1 (configuration not stated)	91
Oc1ccc2c3c1O[C@H]1c4[nH]c5ccccc5c4C[C@@]4(O)C(C2)N(CC2CC2)CCC314 (some centres not stated)	99
Cc1ccc(C)c(NC2(C#N)CCCCC2)c1	97
CCCC(C)C(=O)N(C)c1ccccc1 (configuration not stated)	95
CN(C)c1ccc(/C=C/C(=C(C#N)C#N)C2CC2)cc1	97
Cc1ccc(C#N)c(SCCCn2c(=O)[nH]c3ccccc32)n1	98
CC(C)=CC(=O)N1CCCc2ccccc21	98
O=C(OCCO)c1cc(Cl)c(C(=O)OCCO)cc1Cl	104
Cc1ccc(C(=O)COC(=O)c2ccc(Br)cn2)cc1	99
CCOC(=O)N1CCN(C(=O)CN2C(=O)/C(=C/c3ccc(OCC)cc3)SC2=S)CC1	95
CO[C@H]1/C=C/O[C@@]2(C)Oc3c(C)c(O)c4c(O)c(c(C=NN5CCN(C)CC5)c(O)c4c3C2=O)NC(=O)/C(C)=C\C=C\[C@H](C)[C@H](O)[C@@H](C)[C@@H](O)[C@@H](C)[C@H](OC(C)=O)[C@@H]1C	99
CC(C)Oc1ccc(C(F)(F)F)cc1NC(=O)C1CC1	90
NNC(=O)c1nc(-c2cccc(-n3cccc3)c2)no1	101
Clc1ccc(N2CCN(Cc3c[nH]c4ncccc34)CC2)cc1	94
CCOc1ccc2nc(SCC(=O)O)oc2c1	88
O=C(NCCCN1CCOCC1)c1ccc(NC(=O)c2ccccc2)cc1	96
COC(=O)c1sc(NC(=O)CN2CCCCC2C)c(C(=O)OC)c1C (configuration not stated)	80
Cc1cccc(OCC(=O)Nc2ccc(CN3CCOCC3)cc2)c1C	114
CC(C)=C(NC(=O)c1ccccc1)C(=O)N(C)C	94
CCCN(CCC)C(=O)/C=C/c1cc(OC)c(OC)c(OC)c1	91
Cc1cccc(N(C(=O)c2cnc3n(c2=O)CCS3)C2CCCCC2)c1	92
CCNS(=O)(=O)c1ccc(NC(=O)c2cncc(Br)c2)cc1	89

(continued)
canonical_smiles	RVFV N-RNA inh
Cc1cccc(N2CCN(Cc3ccccc3F)CC2)c1C	89
CCN1C(=O)c2ccc(C(=O)Nc3ccc(C(=O)O)cc3)cc2C1=O	93
Cc1cc(NC(=O)CCCCCN2CCOCC2)no1	89
CN(Cc1ccc(C(C)(C)C)cc1)Cc1cccc2ccccc12	91
O=c1[nH]cc(S(=O)(=O)Nc2ccccc2)c(=O)[nH]1	97
CCc1ccc(C(=O)N2CCCC2)s1	89
O=C1CC[C@@H](C(=O)N2CSC[C@H]2C(=O)O)N1	97
CCCCC1(CC(=O)N2CCCCC2)C(=O)N(c2ccccc2)N(c2ccccc2)C1=O	95
CCc1ccc(NC(=O)CSc2nc(=O)n(CCN3CCOCC3)c3c2CCC3)cc1	93
CC(C)(C)C(=O)C(O)C(C)(C)C (configuration not stated)	88
CCOC(=O)N1c2ccccc2CC1C (configuration not stated)	101
FC(F)(F)c1cc(-c2ccccc2)nc(NCC2CCCO2)n1 (configuration not stated)	93
Cc1c(C(=O)Nc2ccncc2)cc(-c2ccccc2)n1CCCN1CCOCC1	93
O=C(CSc1cn(CCNC(=O)c2cccs2)c2ccccc12)NC1CCCC1	93
CCN1C(=O)CC(NCc2ccc3c(c2)OCO3)C1=O (configuration not stated)	97
O=C1CCC(c2ccc(-n3ccnc3)cc2)=NN1	98
Oc1oc(-c2ccco2)nc1/C=N/c1ncn[nH]1	111
CC(=O)Nc1cc(S(=O)(=O)C(F)(F)F)ccc1C	99
COCN(C#N)c1nc(OC)nc(OC)n1	108
CCOC(=O)c1oc2c(O)c(O)ccc2c(=O)c1-c1nncn1-c1ccccc1	93
CN1CCC(O)(c2cccs2)C(C(=O)c2cccs2)C1 (configuration not stated)	104
CCCS(=O)(=O)c1nc2ccccc2n1CCN1CCOCC1	93
FC(F)(F)COc1nc(N2CCOCC2)nc(N(c2ccccc2)c2ccccc2)n1	93
O=C(/C=C/c1ccc(O)c(O)c1)OCCc1ccccc1	93
COc1cc(/C=C2/C(=N)N3N=C(c4ccccc4C)SC3=NC2=O)ccc1OC(=O)c1ccco1	91

Arranged by heavy-atom count (low to high): 11 of the compounds above
canonical_smiles	RVFV N-RNA inh
CC(C)(C)C(=O)C(O)C(C)(C)C (configuration not stated)	88
CCOC(=O)N1c2ccccc2CC1C (configuration not stated)	101
COCN(C#N)c1nc(OC)nc(OC)n1	108
CC(=O)Nc1cc(S(=O)(=O)C(F)(F)F)ccc1C	99
CCN1C(=O)CC(NCc2ccc3c(c2)OCO3)C1=O (configuration not stated)	97
O=C(/C=C/c1ccc(O)c(O)c1)OCCc1ccccc1	93
CCCS(=O)(=O)c1nc2ccccc2n1CCN1CCOCC1	93
O=C(CSc1cn(CCNC(=O)c2cccs2)c2ccccc12)NC1CCCC1	93
Cc1c(C(=O)Nc2ccncc2)cc(-c2ccccc2)n1CCCN1CCOCC1	93
CCc1ccc(NC(=O)CSc2nc(=O)n(CCN3CCOCC3)c3c2CCC3)cc1	93
COc1cc(/C=C2/C(=N)N3N=C(c4ccccc4C)SC3=NC2=O)ccc1OC(=O)c1ccco1	91

Source: PubChem BioAssay

Not all compounds are listed. The share of hits here may be higher or lower than overall.
